Bfl-1 A1 inh – inhibitors of the anti-apoptotic protein A1, read as caspase activation. MEF A1-2A-BIM cells, Caspase-Glo 3/7 luminescence, 3 h; percent of clofoctol response, vehicle zero. caspase activation, % (test concentration not listed). hit rate 0.066% among 330,000;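 active = over half of replicate activation scores above 10%, or exactly half above 10 with the replicate mean above 10; inconclusive = replicate mean below 10 yet half the replicates above 10; inactive = over half of replicates below 10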;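 note: wells of about 30 µL received 50 nL stock; many hits fall short of the cut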
Beta cell apopt – beta cell apoptosis inhibition; INS-1E cytokine-induced death, ATP luminescence, 48 h; percent of positive-control rescue, neutral wells zero; protection from apoptosis, % (concentration not given with the values); hit rate 0.8% among 300,000; AID 435005;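 active = all replicates at 75% or more, or half of them and the mean; inconclusive = half reach 75% but not the mean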;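 note: 0% = cytokine-treated negative control wells and 100% = positive control rescue; higher means more ATP so stronger rescue from cytokine killing; wells of about 40 µL received 100 nL stock; the first replicate is given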
UCH37 inh – human UCH37 deubiquitinating enzyme inhibition; purified proteasome/UCH37, Ub-AMC cleavage fluorescence; inhibition, % (concentration not given with the values); AID 588478; hit rate 0.33% among 330,000; Q9Y5K5;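 active = mean of two replicates above 20%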;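 note: 0% = compound-free wells with enzyme and 100% = wells lacking proteasome; stock transfer was 100 nL into about 20 µL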
Target sequence (Q9Y5K5 whole entry, looked up): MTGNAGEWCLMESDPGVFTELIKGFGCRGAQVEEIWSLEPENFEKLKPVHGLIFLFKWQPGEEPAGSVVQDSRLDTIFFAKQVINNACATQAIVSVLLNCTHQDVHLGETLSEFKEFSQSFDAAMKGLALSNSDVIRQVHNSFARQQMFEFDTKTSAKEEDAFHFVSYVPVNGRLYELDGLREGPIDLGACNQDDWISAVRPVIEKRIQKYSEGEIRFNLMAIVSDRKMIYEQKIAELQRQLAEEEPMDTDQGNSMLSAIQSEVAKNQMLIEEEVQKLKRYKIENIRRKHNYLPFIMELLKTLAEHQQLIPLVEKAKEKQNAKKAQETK
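Material: Human UCH37 enzyme supplied as purified proteasome complex | Schedule: 30 min preincubation with enzyme, 25 min cleavage at room temperature | Detection: AMC fluorescence 355/460 nm | Measure: % inhibition of Ub-AMC cleavage fluorescence | Controls: Wells without proteasome as full block, compound-free enzyme plus substrate as uninhibited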
rRNA inh HTS – selective bacterial rRNA inhibition in E. coli; E. coli WT GFP vs humanized-ribosome RFP mutants, fluorescence, 24 h; hits give low values; DMSO median 0, no signal -100; hit rate 1.6% among 350,000; GFP signal change (wild-type ribosome), % (concentration not given with the values); AID 720706;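 active = significant combined selectivity score with lowered wild-type GFP, culture density cut under 30%, mutant RFP and density less affected; inactive = any of these conditions unmet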; note: one replicate is shown; some compounds called inactive have numbers as strong as hits
E coli growth – inhibitors of Escherichia coli growth. OD600, 23 h; hits give low values. OD600 absorbance (concentration not given with the values). hit rate 0.21% among 330,000. AID 1053175;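 active = OD600 absorbance below the run mean of sample wells minus 3.6 SD, in any replicate, cut at about 0.56 in these data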;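 note: stock transfer was 300 nL into about 60 µL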
FGF22 binding – binders of recombinant human FGF22 by thermal shift. SYPRO orange fluorescence; percent of sucrose octasulfate shift, DMSO zero. AID 651658. Q9HCT0. hit rate 1.5% among 340,000. calls only at 9.99 µM;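 active = melting point raised past a set limit in the mean and every replicate; inconclusive = no clear call; three in four hits are not shown here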
Target sequence (Q9HCT0 whole entry, looked up): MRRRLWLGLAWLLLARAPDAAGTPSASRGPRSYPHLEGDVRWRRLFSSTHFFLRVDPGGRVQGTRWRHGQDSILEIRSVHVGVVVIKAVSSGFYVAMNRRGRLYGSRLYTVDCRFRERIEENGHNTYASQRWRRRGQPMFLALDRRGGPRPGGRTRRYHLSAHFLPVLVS
AF4-AF9 inh – blocks AF4 peptide binding to human AF9 | AlphaScreen, biotin-AF4 peptide binding to FLAG-AF9 | inhibition, % at 10 µM | hit rate 0.47% among 350,000 | AID 651704;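 active = every replicate reaching a set inhibition limit, whatever the replicate mean, cut at about 25% in these data; inconclusive = mean inhibition reaches that limit but some replicates miss it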;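 note: 0% = plate neutral control median and 100% = total signal loss; the record names both 10 and 1 µM as test concentration; the first replicate is given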
Target sequence (P42568 whole entry, looked up): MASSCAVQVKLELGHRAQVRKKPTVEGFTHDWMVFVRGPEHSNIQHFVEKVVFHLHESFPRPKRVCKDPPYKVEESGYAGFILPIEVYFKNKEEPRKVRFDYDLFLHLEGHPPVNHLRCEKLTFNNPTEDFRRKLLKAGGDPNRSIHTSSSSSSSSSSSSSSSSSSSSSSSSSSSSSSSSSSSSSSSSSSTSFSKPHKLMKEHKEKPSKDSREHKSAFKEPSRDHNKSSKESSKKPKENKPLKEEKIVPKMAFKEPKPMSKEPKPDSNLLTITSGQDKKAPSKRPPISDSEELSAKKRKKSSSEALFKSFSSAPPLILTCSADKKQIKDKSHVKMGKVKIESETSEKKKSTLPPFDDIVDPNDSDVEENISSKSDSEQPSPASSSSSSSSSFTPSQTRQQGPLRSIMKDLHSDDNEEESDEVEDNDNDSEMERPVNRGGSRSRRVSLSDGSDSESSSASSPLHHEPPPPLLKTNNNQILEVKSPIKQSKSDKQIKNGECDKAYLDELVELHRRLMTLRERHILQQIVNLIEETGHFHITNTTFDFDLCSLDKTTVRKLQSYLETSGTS
T cruzi repl – T. cruzi replication inhibition; inhibition, % (test concentration not listed); AID 1885; T. cruzi beta-gal in NIH3T3, luminescence, 90 h; hit rate 1.4% among 300,000;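 active = mean inhibition across valid replicates above about 55%, limit read from the data; inconclusive = mean below that limit but half or more replicates reach it; inactive = mean below it, under half of replicates reach it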;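 note: signal also drops with host cell toxicity which is not excluded here; 0% = plate median of DMSO wells and 100% = zero luminescence signal; higher percent means less beta-gal luminescence so fewer parasites; stock transfer was 50 nL into about 50 µL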
rRNA inh HTS OD600 – further read-out of rRNA inh HTS, marked with its call; OD600 change, %; measured here: OD600 growth;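 optical density of the mix in the first replicate; 0 = DMSO median and -100 = no signal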
rRNA inh HTS RFP – recorded beside rRNA inh HTS, whose call it bears; RFP signal change, %; measured here: RFP humanized mutant strains;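 first replicate; 0 = DMSO median and -100 = no signal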
Active calls of the source: *; i = inactive; ? = inconclusive; . = not tested or not shown. An excerpt. The share of hits here may be higher or lower than overall.

SMILES	Bfl-1 A1 inh	Beta cell apopt	UCH37 inh	rRNA inh HTS	rRNA inh HTS OD600	rRNA inh HTS RFP	E coli growth	FGF22 binding	AF4-AF9 inh	T cruzi repl
COCc1[nH]nc2c1C(c1ccccc1Cl)C(C#N)=C(N)O2 (centres undefined)	0.4	-5.1	0.1	.	.	.	0.686	.	.	-13.5
O=C(Cn1nc(C(=O)O)c2ccccc2c1=O)NC12CC3CC(CC(C3)C1)C2	-0.2	.	2.4	14.3	11.4	-0.8	0.645	i	-0.9	4.0
COc1ccc2c(c1)C(C)=CC(C)(C)N2C(=O)CNCc1ccc2c(c1)OCO2	-2.0	0.8	6.9	-30.2	-58.0	-6.5	0.727	i	7.4	34.0
CCn1nc(NS(=O)(=O)c2ccc([N+](=O)[O-])cc2)c2cc3cccc(C)c3nc21	0.3	.	.	-4.2	-22.5	-1.9	.	i	0.6	-10.9
CCOC(=O)C1=C(C)NC2=C(C(=O)CC(C)(C)C2)C1c1ccc(O)c(OCC)c1 (centres undefined)	0.8	-16.0	0.0	7.4	3.9	-3.0	0.723	i	1.4	1.8
N#Cc1nc(-c2ccc(OCc3ccccc3)cc2)oc1NCc1ccco1	-0.6	-3.8	-4.8	.	.	.	0.743	.	.	9.7
CN(C)CCOc1ccc2ccccc2c1	0.2	3.0	3.3	.	.	.	0.622	.	.	26.7
COc1ccc(C(=O)OCC(=O)N2CC(=O)Nc3ccccc32)cc1Br	.	.	0.2	3.5	13.8	0.5	0.655	i	-2.6	.
COc1nc2c(c(-c3cc(Br)cs3)c1C#N)Cc1ccccc1-2	0.8	.	-196.0	17.6	10.2	2.1	0.695	i	1.3	4.4
CC(c1ccccc1)C1CC(=O)N(c2ccccc2)C1=O (centres undefined)	0.0	-3.1	-0.1	8.2	17.6	-10.3	0.635	i	-4.5	1.6
COc1cc(SC)ccc1C(=O)N1CCCc2ccccc21	0.7	.	5.8	-15.7	-21.3	-2.0	0.639	i	2.9	-34.4
COc1ccccc1C(=O)Nc1nnc(S(=O)(=O)N(C)Cc2ccccc2)s1	1.2	-3.5	4.5	-25.1	-29.2	0.5	0.692	i	-6.3	-0.9
CCOC(=O)/C(C#N)=C/c1ccc(OCC(=O)Nc2cc(C)ccc2C)c(OC)c1	0.3	-3.0	-42.4	.	.	.	0.71	.	.	-11.7
COC(=O)Cn1c(=NC(=O)c2cc(-c3cccs3)nc3ccccc23)sc2cc(S(N)(=O)=O)ccc21	0.9	.	.	23.5	9.9	2.7	.	i	8.1	24.5
O=C(Nc1c(C(=O)N2CCOCC2)cnn1-c1ccccc1)c1ccc([N+](=O)[O-])cc1	0.3	-7.7	3.6	17.9	12.4	-0.5	0.696	i	2.6	0.1
O=C(COC(=O)c1nc(Cl)ccc1Cl)c1ccccc1Cl	1.7	-7.0	2.6	7.3	12.7	-1.0	0.706	i	-21.8	3.7
CCOc1ccc(S(=O)(=O)N(C)c2ccc(OCC(=O)OCc3c(C)noc3C)cc2)cc1	-0.6	-4.5	4.5	.	.	.	0.717	.	.	-7.5
O=C(Nc1cccc(Cl)c1)c1ccc(NC2=NC3CS(=O)(=O)CC3S2)cc1 (centres undefined)	.	0.8	1.4	1.6	-9.0	-1.2	0.793	i	9.8	-6.4
CC(=O)c1cccc(NC(=O)C(C)OC(=O)C2CCC2)c1 (centres undefined)	-1.0	-3.9	0.0	5.9	9.0	0.3	0.718	i	-2.0	-11.4
O=C(Nc1ccccc1Cl)N1C2CCC1CC(O)(c1cccnc1)C2 (centres undefined)	0.7	-3.4	2.2	6.6	0.2	-2.0	0.683	i	0.7	-4.7
CC(C)CN(C(=O)COC(=O)CCSc1ccc(F)cc1)c1c(N)n(Cc2ccccc2)c(=O)[nH]c1=O	-0.7	-13.1	2.9	7.4	6.8	-1.5	0.688	i	0.0	-6.0
Cc1cc2ccccc2c(=O)n1CC(=O)NCC(=O)N(C)Cc1ccccc1	-0.1	-2.5	-1.2	.	.	.	0.717	.	.	3.5
CCCCOC(=O)CSC1=C(C#N)C(c2ccc3c(c2)OCO3)CC(=O)N1 (centres undefined)	-0.7	3.1	4.9	.	.	.	0.761	.	.	15.2
COc1ccccc1OCCNC(=O)c1cc(SC)ccc1Cl	1.0	-3.8	1.4	.	.	.	0.691	.	.	3.6
Clc1ccc2c(c1)CNc1c(ncnc1N1CCOCC1)O2	-0.4	-4.0	-0.3	.	.	.	0.688	.	.	-17.9
COc1ccc(-n2nc(C(=O)O)cc2-c2ccccc2)cc1	2.1	3.7	4.7	-35.8	-32.9	-6.3	0.702	i	-0.3	-9.1
CCN(CC)c1ccc(NC(=O)C2CCCN(S(=O)(=O)c3cccnc3)C2)c(C)c1 (centres undefined)	-1.7	-2.3	0.4	4.0	1.2	-1.3	0.728	i	0.0	25.5
O=C(O)c1ccc(NC(=O)c2cccc(C(=O)Nc3ccc(C(=O)O)cc3)n2)cc1	0.7	-6.6	4.2	-4.1	22.8	8.3	0.6	.	-4.4	-10.4
N#C/C(=C/c1cn(CC(=O)O)c2ccccc12)C(=O)NCc1ccccc1	-0.2	-6.1	6.0	-1.0	-2.8	0.3	.	i	0.7	-16.4
O=c1[nH]c(=O)c2cn[nH]c2[nH]1	0.5	.	2.7	.	.	.	0.699	i	-1.3	.
CCCCn1c(N)c(N(CCOC)C(=O)c2cc3c(s2)CCC3)c(=O)[nH]c1=O	0.3	3.1	-1.5	8.1	0.9	2.3	0.712	i	-2.1	-2.5
CC(=O)Nc1c(C)cc(S(C)(=O)=O)cc1C	2.1	-10.8	2.6	9.1	5.0	0.0	0.712	i	-1.5	-1.1
O=C1C2CC=CCC2C(=O)N1Cc1ccccc1Cl (centres undefined)	-1.3	-6.4	0.7	13.9	10.8	-0.5	0.651	.	-22.0	3.0
Cc1ccc(CCNC(=O)c2cc(C)nn2-c2ccccc2)cc1	-0.6	0.3	1.6	-5.4	0.1	-5.2	0.711	i	-2.6	2.0
CCOc1ccccc1-c1cc(-c2ccc(OC)cc2)nc2c1c(=O)n(C)c(=O)n2C	1.3	-0.8	1.1	.	.	.	0.72	.	.	6.3
CCCc1cc(=O)[nH]c(NCc2ccc(Cl)cc2)n1	0.7	-3.6	1.5	.	.	.	0.614	.	.	-4.3
CC(=O)Nc1ccc(NC(=O)C/C(C)=N/NC(N)=S)cc1	?	-0.1	.	19.8	23.9	1.0	.	i	-5.7	-5.5
Cc1ccc(CNC(=O)c2cccnc2Sc2cccc(Cl)c2)cc1	-0.2	.	6.6	2.9	9.4	5.9	0.682	i	-2.1	.
COC(=O)c1nc(NC(=O)c2ccccc2)n[nH]1	0.0	-2.8	5.8	.	.	.	0.736	.	.	-4.2
O=C(CN1CCN(c2ccc(O)cc2)CC1)Nc1ccc(S(=O)(=O)N2CCCC2)cc1	0.1	2.9	1.4	-9.0	1.4	-1.2	0.679	i	2.1	.
O=C(NN1CCOCC1)c1cc(-c2cccs2)nc2ccccc12	-0.4	-4.6	-485.0	.	.	.	0.677	.	.	-33.1
CCOc1ccc(OCc2ccc(C(=O)OCc3ccccn3)o2)cc1	-7.6	-3.2	-2.9	.	.	.	0.661	.	.	-9.0
CC(C)c1ccc(/C=C/C(=O)Nc2nc3ccc([N+](=O)[O-])cc3s2)cc1	1.0	15.8	5.2	.	.	.	0.727	.	.	-1.9
Cc1ccccc1Sc1ccc([N+](=O)[O-])cn1	0.3	-9.3	5.7	3.1	6.6	-3.1	0.664	i	0.1	6.9
CC(=O)c1cccc(NC(=O)CCCN(C)S(=O)(=O)c2ccc(F)cc2)c1	-0.1	2.5	-1.2	-0.3	0.5	-1.8	0.591	i	1.7	7.8
CC(C)CNC(=O)/C=C/c1cccs1	0.0	-3.0	4.1	.	.	.	0.638	.	.	-17.6
Cc1nn(CC(=O)NC2(C)CCS(=O)(=O)C2)c(C)c1S(=O)(=O)N(C)C (centres undefined)	0.7	-0.7	2.0	4.8	4.9	-3.5	0.691	i	-10.3	.
O=C(Nc1sc2c(c1C(=O)NCCCO)CCCC2)c1ccccc1	1.8	-5.9	-120.8	-6.6	-0.9	-0.6	0.743	i	-4.0	20.4
COc1cc(/C=N/Nc2nc(C)cc(C)n2)cc(OC)c1OC	0.6	-4.7	.	-5.0	7.0	1.5	.	i	0.5	-8.9
CC(NC(=O)Cc1ccccc1)c1nc2ccccc2[nH]1 (centres undefined)	0.1	-6.6	0.2	-1.1	6.6	-4.2	0.706	i	6.6	-11.9
(cont.)
SMILES	Bfl-1 A1 inh	Beta cell apopt	UCH37 inh	rRNA inh HTS	rRNA inh HTS OD600	rRNA inh HTS RFP	E coli growth	FGF22 binding	AF4-AF9 inh	T cruzi repl
Cc1c(Cl)ccc2sc(NC(=O)C3CC3)nc12	0.3	5.5	1.8	-3.2	-22.4	-5.7	0.649	i	5.8	-7.8
CC[C@]12c3[nH]c4ccc(OC)cc4c3CCN1C(=O)C(CC(=O)NCCCn1ccnc1)C[C@@H]2C(=O)N1CCN(C(=O)C2CC2)CC1 (some centres undefined)	.	.	-3.2	14.1	8.8	3.3	0.717	i	-0.7	.
CCc1nn(CC(=O)N2CCN(c3ccc(OC)cc3)CC2)c(=O)c2cc3occc3n12	1.3	-4.2	0.6	0.8	8.7	2.1	0.678	i	-8.3	-6.8
COc1ccc(F)cc1CN1CCN(c2ncnc3scc(-c4ccccc4)c23)CC1	-0.3	-13.6	.	.	.	.	.	i	5.4	-17.2
CCC(=O)Nc1cc2nn(-c3ccc(C)cc3)nc2cc1C	-7.0	-11.6	-33.6	7.2	8.8	0.2	0.711	i	-1.8	-1.5
O=C(CN1CCN(S(=O)(=O)c2ccc(F)cc2)CC1)N1CCOCC1	-0.5	5.1	-2.8	-1.3	9.1	-1.1	0.702	i	-1.4	-2.6
COc1ccc(S(=O)(=O)N(CCc2ccccc2)CC(=O)N2CCOCC2)cc1	-0.2	-4.6	4.4	.	.	.	0.639	.	.	4.1
Cc1c(C(=O)c2ccc(Cl)cc2[N+](=O)[O-])c2ccccn2c1CCC#N	-1.3	-23.4	5.6	.	.	.	0.667	.	.	12.6
O=P(O)(CP(=O)(c1ccccc1)c1ccccc1)c1ccccc1	-0.1	-10.4	0.0	.	.	.	0.773	.	.	-7.4
CN(Cc1cccs1)C(=O)c1ccc(Cl)c(S(=O)(=O)N2CCCCCC2)c1	0.2	-14.5	0.3	-26.0	-48.2	-10.0	0.709	i	3.9	.
Cc1ccc(Nc2nc(-c3ccc(O)cc3O)cs2)nc1	-0.2	9.9	2.4	-47.5	-70.2	-4.4	0.607	i	5.2	31.4
COC(=O)c1cc(S(=O)(=O)n2nc(C)cc2C)c(Cl)cc1Cl	0.2	-3.2	-0.4	.	.	.	0.745	.	.	-7.5
C=CCNC(=O)NC(=O)COC(=O)/C(C#N)=C/c1cc(C)n(CC(C)C)c1C	0.0	2.7	-35.0	.	.	.	0.723	.	.	37.7
COCCCn1c(=S)[nH]c2c(sc3ccccc32)c1=O	-1.8	-0.2	4.0	-11.3	-4.9	1.1	0.661	i	-0.1	-7.0

Compound activity as filed in PubChem.
